High-throughput results: PubChem, Southern Research Institute
total CFTR – total CFTR protein upregulators, primary screen, cell-based, HeLa F508del-CFTR, immunofluorescence, viability (AID 1224863); calls, or highest fold increase where a dose series was run; 10,000 tested, 0.1% active; HeLa F508del-CFTR, immunofluorescence total CFTR, 24 h; by the record results were divided by relative cell number; some inactives read as strong as hits; in the data nearly all actives have a first-pass fold increase above 1.5; a few of its hits are not listed in these tables;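 also: total CFTR protein by anti-CFTR immunofluorescence in fixed cells; first pass at 25 µM or 10 µg/mL by library and series up to twice that; 1 = untreated cells; first-pass hits also needed half or more of the cells alive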
total CFTR fold 25 µM – also measured in total CFTR; calls as there; fold increase; measured here: primary screen single dose 25 uM; library dosed in µM
total CFTR fold 10 ug/mL – also measured in total CFTR; calls as there; fold increase; measured here: primary screen 10 ug/mL
total CFTR viability 25 µM – also measured in total CFTR; calls as there; viability, %; measured here: primary viability 25 uM; library dosed in µM;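 0% = killed and 100% = untreated cells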
total CFTR viability 10 ug/mL – second read-out of total CFTR, no call of its own (marks repeat the call); viability, %; measured here: primary viability 10 ug/mL;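 0% = killed and 100% = untreated cells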
* hit, by the source's call; i = inactive; nt = not tested or not shown; & = joins results of further samples. A portion of the library; rates above refer to the full screens.

SMILES	total CFTR	total CFTR fold 10 ug/mL	total CFTR viability 10 ug/mL	others
CC(C)(C)C(=O)N1CCCC1C(=O)NC1CCSc2ccc(Cl)cc21 (centres undefined)	i	0.96	94.0
CCn1c(C)cc(C(=O)CSc2nnc(-c3cccs3)o2)c1C	i	1.06	90.0
O=C(Nc1ccc(I)cc1)N1CCCCCC1	i	0.89	95.0
CS(=O)(=O)N1CCC(NC(=O)CCCN2C(=O)NC3(CCCC3)C2=O)CC1	i	0.88	97.0
CCc1nnsc1C(=O)N1CCN(CC(=O)NC2CC2)CC1	i	0.9	70.0
C=CCNc1nnc(SCc2cc(Cl)c3c(c2)OCO3)s1	i	0.96	92.0
NNc1nncc2ccccc12	i	nt	nt	total CFTR fold 25 µM=1.09&1.04;total CFTR viability 25 µM=82.0&79.0
COCC(C)Nc1nc2ccccc2o1 (centres undefined)	i	1.1	99.0
O=c1[nH]c(=O)n(C2C[C@@H](O)[C@@H](CO)O2)cc1F (some centres undefined)	i	nt	nt	total CFTR fold 25 µM=1.19;total CFTR viability 25 µM=99.0
O=S(=O)(NCC1(c2ccccc2)CC1)c1cc(F)ccc1F	i	0.91	74.0
Cn1c(NCC2(N3CCCCC3)CCCCC2)c(C#N)c(=O)n(C)c1=O	i	0.97	94.0
COC(=O)c1ccc(Oc2ccc3nnc(C(F)(F)F)n3n2)cc1	i	0.96	100.0
O=S(=O)(c1ccc(F)c(F)c1)N1CCN(Cc2ccccn2)CC1	i	1.07	94.0
NC(=O)Cn1ccc([N+](=O)[O-])n1	i	0.97	92.0
O=C(NCC12CC3CC(CC(C3)C1)C2)C1CCCCC1	i	1	105.0
CC(NC(=O)COC(=O)c1cc(Cl)cn1C)c1ccco1 (centres undefined)	i	0.98	100.0
CC(NS(=O)(=O)c1ccc(Cl)cc1C(F)(F)F)C12CC3CC(CC(C3)C1)C2 (centres undefined)	i	1.19	99.0
COC(=O)c1sccc1S(=O)(=O)N(C)Cc1nccn1C(F)F	i	0.99	96.0
Cc1cnc(C(=O)NC(C)c2cccs2)cn1 (centres undefined)	i	0.99	81.0
COC(=O)c1cc(C(=O)c2cc(F)ccc2O)cc(C(=O)OC)c1O	i	1.03	96.0
CN(CC(O)COc1ccc(C(F)(F)F)cc1)c1ccc([N+](=O)[O-])cn1 (centres undefined)	i	0.89	77.0
COc1cc2nc(N3CCN(C(=O)c4ccco4)CC3)nc(N)c2cc1OC	i	nt	nt	total CFTR fold 25 µM=1&0.95;total CFTR viability 25 µM=73.0&73.0
O=C1CN(C(=O)CSc2nnc(-c3cccs3)n2C2CC2)C2(CCCCC2)C(=O)N1	i	1.07	93.0
Nc1nc(N)nc(COC(=O)c2c3c(nc4ccccc24)/C(=C\c2ccc4c(c2)OCO4)CCC3)n1	i	1.05	110.0
CCOC(=O)C1=C(C)N(C)C(=O)N(C)C1c1cccc(C#N)c1 (centres undefined)	i	1.01	96.0

Next part; it opens with the 3 that closed the last part.
SMILES	total CFTR	total CFTR fold 10 ug/mL	total CFTR viability 10 ug/mL	others
O=C1CN(C(=O)CSc2nnc(-c3cccs3)n2C2CC2)C2(CCCCC2)C(=O)N1	i	1.07	93.0
Nc1nc(N)nc(COC(=O)c2c3c(nc4ccccc24)/C(=C\c2ccc4c(c2)OCO4)CCC3)n1	i	1.05	110.0
CCOC(=O)C1=C(C)N(C)C(=O)N(C)C1c1cccc(C#N)c1 (centres undefined)	i	1.01	96.0
Cc1noc(C)c1C(=O)OCC(=O)Nc1sccc1C#N	i	1	96.0
N#Cc1ncn(Cc2nc3ccccc3s2)n1	i	1.06	98.0
CC(N)CCCC(C)(C)O (centres undefined)	i	nt	nt	total CFTR fold 25 µM=1.1;total CFTR viability 25 µM=108.0
CSc1ccc(F)cc1N	i	0.88	101.0
COc1cccc(C2N=C(N)Nc3nc4ccccc4n32)c1 (centres undefined)	i	1.04	94.0
Cc1ccc(-c2cc(C(F)(F)F)nn2-c2ccc(S(N)(=O)=O)cc2)cc1	i	nt	nt	total CFTR fold 25 µM=0.9&0.79&0.8;total CFTR viability 25 µM=85.0&85.0&76.0
C=CCOc1ccc(/C(O)=C2/C(=O)C(=O)N(CCN(C)C)C2c2ccc(Cl)c(Cl)c2)cc1 (centres undefined)	i	0.98	87.0
CCN(Cc1ccc2c(c1)OCCO2)S(=O)(=O)C1=Cc2ccccc2CC1	i	0.84	84.0
c1ccc2[nH]c(-c3cscn3)nc2c1	i	nt	nt	total CFTR fold 25 µM=1.01;total CFTR viability 25 µM=73.0
CCCc1nn(C)c2c(=O)[nH]c(-c3cc(S(=O)(=O)N4CCN(C)CC4)ccc3OCC)nc12	i	nt	nt	total CFTR fold 25 µM=1.23&1.09&0.95;total CFTR viability 25 µM=110.0&106.0&90.0
COC(=O)[C@H]1[C@H]2C[C@@H]3c4[nH]c5cc(OC)ccc5c4CCN3C[C@H]2C[C@@H](OC(=O)c2cc(OC)c(OC)c(OC)c2)[C@@H]1OC	5.74	nt	nt	total CFTR fold 25 µM=1.11&2.42;total CFTR viability 25 µM=80.0&85.0
COC(CNCc1ccc(SC)cc1)OC	i	1.05	94.0
Cc1ccc(-n2c(SCCOC(C)C)nnc2N2CCOCC2)cc1	i	0.95	92.0
CC(C)(Oc1ccc(C2CC2(Cl)Cl)cc1)C(=O)O (centres undefined)	i	nt	nt	total CFTR fold 25 µM=1.04;total CFTR viability 25 µM=103.0
O=S(=O)(Cc1ccc(F)cc1)NCCSCc1ccco1	i	0.92	107.0
Cc1nc(-c2cccs2)sc1C(=O)NC1CCS(=O)(=O)C1 (centres undefined)	i	1.16	96.0
Fc1ccccc1Nc1nnc(SCCOc2ccc(Br)cc2)s1	i	1.03	75.0
O=C(COc1cc(Cl)c(Cl)cc1Cl)N1CCN(C(=O)C2CCCO2)CC1 (centres undefined)	i	0.97	99.0
COc1ccc(CN(C)CN2C(=O)CC3(CCCC3)C2=O)cc1F	i	0.95	96.0
Cc1cc(CSc2nc(N)cc(N)c2C#N)on1	i	0.88	100.0
CC(C)NC(=O)CSc1nnnn1C1CC1	i	1.02	111.0
CCN(CC)S(=O)(=O)c1ccc(Sc2ccc3c(c2)OCCO3)c([N+](=O)[O-])c1	i	1.16	95.0
Cc1c(CSc2nnnn2C)noc1-c1ccc(F)cc1	i	0.99	94.0
CC1(C)C2CCC1(CS(=O)(=O)Nc1cc(C(=O)O)cc(C(=O)O)c1)C(=O)C2 (centres undefined)	i	1.05	99.0
O=C1c2ccccc2C(=O)N1CCSc1ccc2c(c1)OCCCO2	i	0.86	87.0
Next compounds follow.
SMILES	total CFTR	total CFTR fold 10 ug/mL	total CFTR viability 10 ug/mL	others
N#Cc1ccc(CSc2nc3ccc([N+](=O)[O-])cc3s2)cc1	i	1.11	104.0
COc1cc(CNC(c2ccc(F)cc2)c2nccn2C)cc2c1OCCO2 (centres undefined)	i	0.93	84.0
CC1(c2ccc(F)cc2)NC(=O)N(CN2CCOCC2)C1=O (centres undefined)	i	1.01	98.0
CC(=O)N1C=Cc2ccccc2C1CC(=O)Nc1cccc(NC(=O)NC2CC2)c1 (centres undefined)	i	1.01	84.0
CC1CCN(S(=O)(=O)N2CCCC(c3cc4ccccc4[nH]3)C2)CC1 (centres undefined)	i	1.03	77.0
O=[N+]([O-])c1cccc(N2CCN(c3ccccc3)CC2)c1	i	0.85	89.0
COc1ccc(C2NS(=O)(=O)N=C3CCCN32)cc1 (centres undefined)	i	1.01	96.0

In the list so far, twelve have a carbonyl joined to an NH by a bond outside any ring:
SMILES	total CFTR	total CFTR fold 10 ug/mL	total CFTR viability 10 ug/mL	others
CC(C)(C)C(=O)N1CCCC1C(=O)NC1CCSc2ccc(Cl)cc21 (centres undefined)	i	0.96	94.0
O=C(Nc1ccc(I)cc1)N1CCCCCC1	i	0.89	95.0
CS(=O)(=O)N1CCC(NC(=O)CCCN2C(=O)NC3(CCCC3)C2=O)CC1	i	0.88	97.0
CCc1nnsc1C(=O)N1CCN(CC(=O)NC2CC2)CC1	i	0.9	70.0
NC(=O)Cn1ccc([N+](=O)[O-])n1	i	0.97	92.0
O=C(NCC12CC3CC(CC(C3)C1)C2)C1CCCCC1	i	1	105.0
CC(NC(=O)COC(=O)c1cc(Cl)cn1C)c1ccco1 (centres undefined)	i	0.98	100.0
Cc1cnc(C(=O)NC(C)c2cccs2)cn1 (centres undefined)	i	0.99	81.0
Cc1noc(C)c1C(=O)OCC(=O)Nc1sccc1C#N	i	1	96.0
Cc1nc(-c2cccs2)sc1C(=O)NC1CCS(=O)(=O)C1 (centres undefined)	i	1.16	96.0
CC(C)NC(=O)CSc1nnnn1C1CC1	i	1.02	111.0
CC(=O)N1C=Cc2ccccc2C1CC(=O)Nc1cccc(NC(=O)NC2CC2)c1 (centres undefined)	i	1.01	84.0
